Source: PubChem (Southern Research Institute)
Mtb H37Rv: Mycobacterium tuberculosis H37Rv growth inhibition, cell based, confirmatory dose response (AID 1949). one-dose inhibition, % at 10 µg/mL; IC50 in µg/mL for titrated hits. actives 1.6% (n = 100,000). most inactive calls were filed without a number and no value below 0 was filed;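 active = confirmed in a dose series; inconclusive = about 50% or more but not retested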;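 note: bacteria grown 7 days with compound before Alamar blue readout; 0% = untreated bacteria and 100% = reference antibiotic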
* = called active by the depositor; i = inactive; ? = inconclusive.

SMILES	Mtb H37Rv
CS(=O)(=O)N(Cc1ccccc1)c1ccc(C(=O)Nc2ccccn2)cc1	i
O=S(=O)(Nc1cccc(-c2cn3ccsc3n2)c1)c1ccc2ccccc2c1	15%
O=C(Nc1ccc(Cl)c(Cl)c1)C1CC(=O)N(c2ccccc2Cl)C1 (centres undefined)	8%
O=S(=O)(c1ccc(Cl)cc1)c1cccc(S(=O)(=O)N2CCN(c3ccccc3)CC2)c1	i
Cc1ccc(SCC(=O)NCCc2ccc(S(N)(=O)=O)cc2)cc1	i
COc1cccc2c1oc(=O)c1c(N)nc3c(c12)CC(C)CC3 (centres undefined)	i
O=C(CN(Cc1ccc(F)cc1)S(=O)(=O)c1ccccc1)NCc1ccncc1	i
COc1cccc(NC(=O)c2ccc(N3CCCC3)c([N+](=O)[O-])c2)c1	1%
CC(C)(c1ccccc1)c1ccc(OCC(=O)Nc2ccccc2C(N)=O)cc1	2%
CC(NC(=O)C1CCC1)c1ccccc1 (centres undefined)	i
COc1cccc(OCCOc2cccc(C(C)C)c2)c1	7%
CCS(=O)(=O)CCSc1nc(-c2ccc(OC)cc2)cc(-c2ccccc2)c1C#N	i
COC(=O)C(O)(CC(=O)Nc1ccc(OC(F)(F)F)cc1)C(F)(F)F (centres undefined)	i
O=C(NCc1ccco1)c1cc(-c2cccnc2)nc2ccc(Br)cc12	i
COc1ccc(S(=O)(=O)N(C)Cc2ccccc2)cc1C	2%
O=C(c1cccc(Cl)c1)N1CCCC(C(=O)N2CCc3ccccc3C2)C1 (centres undefined)	i
CCn1c(Cc2ccc(OC)cc2)nnc1SCC(=O)Nc1cc(Cl)ccc1Cl	i
COCCCNC(=S)NNC(=O)c1ccoc1C	i
CC(C(=O)N1CCOCC1)N1c2cccc3cccc(c23)S1(=O)=O (centres undefined)	i
CN(C(=O)c1cccs1)C1(C)CCS(=O)(=O)C1 (centres undefined)	i
CCc1ccc(N2N=C(C)/C(=C\c3cc(OC)c(O)c(OC)c3)C2=O)cc1	i
CCOc1ccc(-n2c(-c3cccc(Br)c3)n[nH]c2=S)cc1	i
O=C(CN1CCCCC1)NN1C(=O)c2cccc3cccc(c23)C1=O	i
O=C(NCCc1ccc(Cl)cc1)C(=O)NC1CC1	12%
O=c1nc(N2CCOCC2)nc(Nc2ccccc2)[nH]1	i

(listing goes on)
SMILES	Mtb H37Rv
CC1CCC(NC(=O)C(=O)Nc2cccc(Cl)c2)CC1 (centres undefined)	i
CCOC(=O)c1ccc(NC(=O)/C(=C\c2ccco2)NC(=O)c2ccccc2OC)cc1	2%
COc1ccc(C)cc1NC(=O)c1cccc(C(=O)Nc2cc(C)ccc2OC)c1	i
O=C1CCCC2=C1C(c1cc(Cl)c(OCc3ccccc3F)c(Cl)c1)C1=C(CCCC1=O)N2	i
Fc1cccc(NC(=S)N2CCN(c3ccccn3)CC2)c1	i
COc1ccc(SCCc2ccncc2)cc1	4%
CC(C)CNC(=O)c1ccc(NC(=O)Cc2ccc(Cl)cc2)cc1	i
S=C(NCc1ccc(Cl)cc1)NCc1ccc(-n2cccn2)cc1	5.4µg/mL*
Cc1ccccc1NS(=O)(=O)c1ccc(NS(=O)(=O)c2ccc3c(c2)OCCO3)cc1	i
CC(=O)Nc1ccc(S(=O)(=O)N2CCC(N3CCN(Cc4ccccc4)CC3)CC2)cc1	i
CC(C)C(=O)N1CCN(c2ccccc2NC(=S)NC(=O)c2ccco2)CC1	5%
O=c1[nH]c(=O)n(-c2ccccc2)c2c1C(C(F)(F)F)(C(F)(F)F)N=C(c1cccc([N+](=O)[O-])c1)N2	2%
COc1ccc(-c2nn(-c3ccccc3)cc2C(=O)Nc2ccc3ccccc3c2)cc1OC	6%
COc1ccc(-c2csc3nc[nH]c(=O)c23)cc1OC	2%
Cc1ccc(C(=O)Nc2ccccc2C2(C)CC2)cc1	i
CCOC(=O)c1sc(NCCOc2cccc(C)c2)nc1C	i
CCCCNCCCCCOc1ccc(Cl)cc1	45%
O=C(Cc1ccc([N+](=O)[O-])cc1)NCCC1=CCCCC1	i
C=C(C)CN1CCN(c2nc(NCc3ccco3)c3ccccc3n2)CC1	4.6µg/mL*
Cn1nc(-c2ccc(C(=O)N3CCN(CCO)CC3)cc2)c2ccccc2c1=O	i
O=C(NC1C2CC3CC(C2)CC1C3)c1cc2ccccc2o1 (centres undefined)	?
CCCc1cc(=O)[nH]c(SCC(=O)Nc2cc(Cl)ccc2Cl)n1	i
Cc1ccccc1NC(=O)c1ccccc1NC(=O)c1cncc(Br)c1	i
Cc1ccccc1C(=O)Nc1cc(NC(=O)c2ccccc2C)cc(C(=O)O)c1	i
Cc1cc(NC(=O)c2cncc(Br)c2)no1	2%

Additional structures follow.
SMILES	Mtb H37Rv
O=C(CSc1nc2ccccc2c(=O)n1CC1CCCCC1)c1ccccc1	2%
CC(C)N(Cc1ccccc1)C(=O)c1c(F)c(F)c(F)c(F)c1F	i
O=C(O)C1CC=CCC1C(=O)NCCc1cccc(Cl)c1 (centres undefined)	3%
COc1cc(OC)cc(C(=O)Nc2ccc(OCC(N)=O)cc2)c1	i
COC(=O)c1cc(NC(=O)CSc2nnc(CSCc3ccc(Cl)cc3)n2C)ccc1Cl	i
CCCC(=O)NCCCCNC(=O)CCC	i
COc1ccc(S(=O)(=O)Nc2ccccc2F)cc1Cl	i
CCOc1ccc(C(=O)Nc2cccc(C(C)=O)c2)cc1Br	0%
CC(C)C(=O)Nc1cccc(NC(=S)NC(=O)c2ccccc2Br)c1	i
CN(C)S(=O)(=O)c1ccc(C(=O)NCc2cccnc2)cc1	i
S=C(NCC1CCCO1)N1CCC2(CC1)OCCO2 (centres undefined)	i
Cc1ccc(C(=O)NCCCCNC(=O)c2ccc(C)c(C)c2)cc1C	i
Cn1c(=O)c(/C=C/c2ccc(F)cc2)nc2ccccc21	4%
CCc1cccc(OCC(=O)Nc2ccccc2C(F)(F)F)c1	1%
NC(=O)c1ccc(N2CCCCC2)c(N)c1	i
CCOC(=O)c1c(-c2ccccc2)csc1NC(=O)CN1C(=O)c2ccccc2C1=O	i
Cc1ccc(OCC(=O)Nc2ncccc2C)cc1	i
COc1cccc(NC(=O)CSc2nc(-c3ccccc3)cc(=O)[nH]2)c1	i
Cc1ccc(-c2n[nH]c(=O)c3ccccc23)cc1S(=O)(=O)NC(C)C	3%
Cc1ccc(C(=O)N2CCN(S(=O)(=O)c3ccc(C)c(C)c3)CC2)cc1	i
Cc1ccc(C)c(N(CC(=O)NC2CC2)S(C)(=O)=O)c1	i
CC(=O)NC1(C(F)(F)F)NC(=O)N(CCc2ccccc2)C1=O (centres undefined)	i
Cc1cccc(C(=O)Nc2ccc(N3CCCCC3)c(Cl)c2)c1	34%
Cc1occc1C(=O)Nc1cccnc1	2%
Cc1nnc(SCC(=O)Nc2sc3c(c2C#N)CCCC3)s1	i

A stretch from further up:
SMILES	Mtb H37Rv
O=c1[nH]c(=O)n(-c2ccccc2)c2c1C(C(F)(F)F)(C(F)(F)F)N=C(c1cccc([N+](=O)[O-])c1)N2	2%
COc1ccc(-c2nn(-c3ccccc3)cc2C(=O)Nc2ccc3ccccc3c2)cc1OC	6%
COc1ccc(-c2csc3nc[nH]c(=O)c23)cc1OC	2%
Cc1ccc(C(=O)Nc2ccccc2C2(C)CC2)cc1	i
CCOC(=O)c1sc(NCCOc2cccc(C)c2)nc1C	i
CCCCNCCCCCOc1ccc(Cl)cc1	45%
O=C(Cc1ccc([N+](=O)[O-])cc1)NCCC1=CCCCC1	i
C=C(C)CN1CCN(c2nc(NCc3ccco3)c3ccccc3n2)CC1	4.6µg/mL*
Cn1nc(-c2ccc(C(=O)N3CCN(CCO)CC3)cc2)c2ccccc2c1=O	i
O=C(NC1C2CC3CC(C2)CC1C3)c1cc2ccccc2o1 (centres undefined)	?

The listing continues.
SMILES	Mtb H37Rv
COc1cc(NC(=O)c2ccncc2)cc(OC)c1OC	i
COc1cc(OC)c(OC)cc1CN1CCN(C(=O)c2ccc(OC)c(OC)c2)CC1	i
Cc1ccc(-c2c(C#N)c(N)nc(SCc3ccccc3)c2C#N)cc1	i
COc1ccccc1C1NC(=S)NC(C)=C1C(=O)Nc1cc(C)ccc1C (centres undefined)	i
Cc1ccc(S(=O)(=O)N(CC(N)=O)Cc2cccc(Cl)c2)cc1	i
O=C1C2C(C(=O)N1CCc1ccccc1)C1C=CC2C12CC2 (centres undefined)	i
CCC(C)c1ccc(NC(=S)Nc2ccc(OC(F)F)c(Cl)c2)cc1 (centres undefined)	i
C=CCNC(=O)COc1ccc(C)cc1	5%
CC(=O)C(C)Sc1nc2c(c(C(F)(F)F)c1C#N)CCCCCC2 (centres undefined)	1%
CCOc1ccc(NC(=S)Nc2c(C(C)C)cccc2C(C)C)cc1	0%
C/C(=N\NC(=O)C(N)=O)c1ccc(C)cc1	0%
CCSc1nnnn1-c1ccc(C)cc1	1%
N#C/C(=C/c1ccc(-c2ccccc2C#N)o1)c1ccc(F)cc1	i
COc1ccc(N2CCN(C(=O)C3CCCCC3)CC2)cc1	i
COc1ccc(C(=O)Nc2cccc(NC(=O)c3ccc(OC)c(OC)c3)n2)cc1OC	49%
Brc1cccc(OCCCCN2CCNCC2)c1	i
COc1ccc(C(=O)NC(=S)Nc2ccc(N3CCCCC3)cc2)cc1OC	1.4µg/mL*
c1ccc2c3nn4c(nc-3nc2c1)SCC4	0%
CCOc1cc(-c2cc(I)c(O)c(OC)c2)cc(=O)c2c(C)oc(C)c12	i
O=C(NCCc1c[nH]c2ccccc12)C(=O)Nc1cccc(C(F)(F)F)c1	i
Cc1cccc(OCC(=O)Nc2ccc(O)cc2)c1	i
O=C(c1ccccc1)c1cn(CC(=O)N2CCCC2)c2ccccc12	i
Cc1cc(=O)oc2ccc(OCC(=O)Nc3ccc(Br)cc3)cc12	4%
O=C(Cn1cc(C(=O)c2ccco2)c2ccccc21)NCCc1c[nH]c2ccccc12	i
Cc1cc(C=O)c(C)n1-c1ccccn1	i

Sorted by SMILES length (rising): part of the list above.
SMILES	Mtb H37Rv
C=CCNC(=O)COc1ccc(C)cc1	5%
COCCCNC(=S)NNC(=O)c1ccoc1C	i
Cc1cc(NC(=O)c2cncc(Br)c2)no1	2%
CCOc1cc(-c2cc(I)c(O)c(OC)c2)cc(=O)c2c(C)oc(C)c12	i

More structures
SMILES	Mtb H37Rv
COc1ccc(-c2cc(C(F)(F)F)c(C#N)c(SCCN3CCCC3)n2)cc1OC	40%
CCCCc1ccc(NC(=S)NCc2ccc(OC)cc2)cc1	49%
CC(NC(=O)CSc1nnc(COc2ccccc2)n1C1CCCCC1)c1ccccc1 (centres undefined)	i
NC(=O)c1c(NC(=O)c2cccc(Cn3cc(Br)cn3)c2)sc2c1CCCCCC2	i
Cc1ccc(NC(=O)c2ccco2)c(NC(=O)c2ccc(Cl)cc2)c1	i
O=C(Nc1ccc([N+](=O)[O-])cc1Br)c1sc2cc(Cl)ccc2c1Cl	i
Cc1cc(NC(=O)C2CC2)ccc1NC(=O)c1cccs1	i
O=C(CSc1ncnc2nc[nH]c12)N1CCOCC1	i
O=C(NC(=S)N(Cc1ccccc1)Cc1ccccc1)c1cccc([N+](=O)[O-])c1	15%
COc1ccc(N2C(=O)NC(=O)/C(=C\c3ccc(C(C)C)cc3)C2=O)cc1	i
Cc1cc2nc(-c3ccc(NC(=O)c4ncn[nH]4)cc3)oc2cc1C	i
CC(NC(=O)c1ccc(-c2ccc(Cl)cc2Cl)o1)c1ccccc1 (centres undefined)	i
CCc1cccc(C)c1NC(=O)CSCc1ccccc1Cl	i
Cn1nnc2cc(NC(=O)Nc3ccc(Cl)cc3)ccc21	i
O=C(CN(Cc1ccc(Cl)c(Cl)c1)S(=O)(=O)c1ccc(Cl)cc1)NCc1ccccn1	i
CS(=O)(=O)N(CC(=O)Nc1ccccc1C(F)(F)F)C1CCCCC1	i
Cn1nc(C(F)(F)C(F)F)cc1-c1ccccc1O	7%
NS(=O)(=O)c1ccc(CNC(=S)Nc2ccccc2)cc1	i
CC(=O)c1cc(C#N)c(SCc2ccccc2)nc1C	i
N#Cc1nc(Cc2ccccc2)oc1N1CCCC1	1%
COc1ccc(N2C(=O)CC(Sc3nc(C)cc(C)n3)C2=O)cc1OC (centres undefined)	i
Cc1ccc(N2C(=O)NC(=O)/C(=C/c3ccc(OC(=O)c4cccs4)cc3)C2=O)cc1	39%
CC1=C/C(=N\N=C2\NC(=O)C(CC(=O)Nc3ccccc3C)S2)CC(C)(C)C1 (centres undefined)	i
COc1ccc(OC)c(C(C)NC(=O)c2cc(Br)cs2)c1 (centres undefined)	i
COc1cccc(OCCn2cc(C(C)=O)c3ccccc32)c1	15%

Another view of some results above:
Cc1ccc(NC(=O)c2ccco2)c(NC(=O)c2ccc(Cl)cc2)c1
  Mtb H37Rv: i
O=C(Nc1ccc([N+](=O)[O-])cc1Br)c1sc2cc(Cl)ccc2c1Cl
  Mtb H37Rv: i
Cc1cc(NC(=O)C2CC2)ccc1NC(=O)c1cccs1
  Mtb H37Rv: i
O=C(CSc1ncnc2nc[nH]c12)N1CCOCC1
  Mtb H37Rv: i

More entries:
SMILES	Mtb H37Rv
COc1ccccc1N1CCN(C(=O)c2sc3cc(F)ccc3c2Cl)CC1	6%
O=C(Nc1ccc(Cl)cc1C(=O)Nc1ccncc1)c1ccc(Cl)cc1Cl	10%
COc1ccc(CNC(=O)Cn2nc(C(F)(F)F)cc2C)cc1	i
COc1ccc(NC(=O)C2CC2c2ccccc2)c([N+](=O)[O-])c1 (centres undefined)	i
O=C(O)C1C2C=CC3(CN(c4cccc([N+](=O)[O-])c4)C(=O)C13)O2 (centres undefined)	i
S=c1[nH]nc(Cn2cnc3ccccc32)n1-c1ccccc1	i
COc1ccc(C2CC(=O)CC(c3ccc(OC)cc3)S2)cc1 (centres undefined)	1%
COc1ccc(COCC(O)CN2CCN(c3ccccc3F)CC2)cc1OC (centres undefined)	i
Cc1nc(SCC(=O)Nc2ccccn2)n[nH]1	i
CCc1cccc(CC)c1NC(=O)CN1C(=O)c2ccccc2C1=O	i
COc1ccccc1NC(=O)CSc1nccc(=O)[nH]1	2%
CCOC(=O)c1c(NC(=S)N(C)Cc2c(C)nn(C)c2C)sc2c1CCCCCC2	48%
OC1CCCN(C(=S)NCc2ccccc2)C1 (centres undefined)	i
O=C(COc1ccccc1Cl)c1ccc(Br)cc1	?
CCOC(=O)c1cnc2nc(-c3ccco3)[nH]n2c1=O	5%
O=C(NCC1OCCc2ccccc21)c1ccc(Cl)cc1 (centres undefined)	i

This is a subset. The share of hits here may be higher or lower than overall.
